Screening data deposited in PubChem BioAssay by several laboratories.
MT1-MMP promoter – MT1-MMP gene expression reporter suppression – cell-based, luciferase reporter, luminescence (AID 618); calls from a first round at 10 µM; hits with a dose series show EC50 in µM; hit rate 0.62% among 87,000; MT1-MMP promoter luciferase reporter cells, luminescence;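 active = over half of the reporter light lost at 10 µM or EC50 under 50 µM; inactive = the rest and hits that failed the dose series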;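 note: actives suppress MT1-MMP promoter-driven transcription so potencies describe inhibitors; HT1080 fibrosarcoma cells; overnight exposure; toxic or luciferase-blocking compounds were not removed from the actives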
WNV protease inh – WNV NS2B-NS3 proteinase inhibition. WNV NS2B-NS3 protease, fluorogenic substrate Ex360/Em465; hits give low values. z-score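 (tested at a level between 10 and 100 µM)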. hit rate 0.18% among 65,000. AID 577;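 active = z-score at -3 or under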;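 note: score is relative to mean and spread of the compound wells of a plate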
Target sequence (P06935 1371-1501 limits assumed): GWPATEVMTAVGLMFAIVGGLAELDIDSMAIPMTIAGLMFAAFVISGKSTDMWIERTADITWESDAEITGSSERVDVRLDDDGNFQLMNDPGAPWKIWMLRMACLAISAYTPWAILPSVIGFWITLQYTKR
Target sequence (P06935 1502-1679 limits assumed): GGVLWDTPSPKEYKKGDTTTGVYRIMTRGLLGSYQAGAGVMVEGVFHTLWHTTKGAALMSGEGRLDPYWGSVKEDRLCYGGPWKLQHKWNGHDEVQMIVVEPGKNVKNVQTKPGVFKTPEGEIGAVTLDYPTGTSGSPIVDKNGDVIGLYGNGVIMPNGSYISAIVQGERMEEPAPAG
Hsc70 ATP site – small molecules displacing fluorescent ligand from Hsc70 – biochemical, fluorescence polarization, primary screen (AID 568) | Hsc70 fluorescence polarization, probe displacement; higher % means a stronger effect; strong numbers were not always called active | displacement, % at 20 µM, or IC50 in µM where a hit was titrated | 83,000 tested, under 10 active;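 active = displacement above 50% without optical interference and an IC50 on retest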;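 note: ATPase domain with a fluorescein-tagged ATP probe; 0% = vehicle and 100% = excess ADP; read after one hour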
An asterisk follows results filed as active; i = inactive; x = not tested or not shown.

Below each SMILES: MT1-MMP promoter, Hsc70 ATP site, WNV protease inh
- c1ccc(CSc2nnc(NC3=NCCCCC3)s2)cc1
    i, 2.9%, 0.26
- Cc1c(Cl)c(C(F)(F)F)nn1CC(=O)N1CCSCC1
    i, -4.0%, -0.47
- COc1cc(OC)cc(OCC(O)Cn2cnc(-c3ccccc3)c2)c1 (stereo not given)
    i, 1.9%, -0.75
- CCCc1nnc2n1N=C(c1ccc(OC)c(OC)c1)CS2
    i, 3.2%, 0.84
- COc1ccc(CCNc2nc(N3CCCCC3)nc(N3CCCCC3)n2)cc1OC
    i, -0.9%, -0.13
- CC(=O)N1SC(N)=NC1c1ccccc1 (stereo not given)
    i, 3.4%, 0.77
- O=C(CSc1nnc(-c2ccccn2)n1Cc1ccco1)c1ccccc1
    i, 1.8%, -0.19
- O=C(CCCc1nc(-c2ccccc2)no1)NCc1cccnc1
    i, 7.3%, -0.85
- Cc1cc(Cl)cc(C)c1OCC(=O)O
    i, -0.3%, 0.45
- O=C(O)CCc1ccc(-c2ccc(Cl)cc2)n1CCC(=O)O
    i, 4.1%, x
- Cc1cc(C)n(CC(O)CN2C(=O)NC(C)(C)C2=O)n1 (stereo not given)
    i, 0.1%, 0.16
- Cc1ccc(NC(=O)c2cc(-c3ccc(C)o3)nc3ccccc23)nc1
    i, 3.2%, -1.02
- CCOC(=O)c1nnn(-c2nonc2-n2cccc2)c1CN1CCCCC1
    i, -4.2%, 0.78
- CC1(C)CC(=O)C(=CN2CCN(C(=O)c3ccco3)CC2)C(=O)C1
    i, 2.6%, 0.11
- O=C(O)CCC(=O)N1CCOc2ccc(Cl)cc21
    i, -4.0%, 0.95
- O=C(c1cccs1)N1CCC(c2nc3ccccc3s2)CC1
    i, -11.2%, -0.86
- CCn1c(=O)cc(SCC(=O)NCC2CCCO2)c2ccccc21 (stereo not given)
    i, 1.3%, 0.64
- CCCCCn1c(N2CCN(Cc3ccccc3)CC2)nc2c1c(=O)[nH]c(=O)n2C
    i, -1.1%, -0.15
- Clc1ccc(CN2C3=NCCN3c3ccccc32)cc1Cl
    i, 0.5%, -0.07
- CC1=C(C(=O)OC(C)C)C(c2ccco2)NC(=O)N1 (stereo not given)
    i, -0.1%, x

Additional records follow.
Below each SMILES: MT1-MMP promoter, Hsc70 ATP site, WNV protease inh
- O=C1CCc2cc(S(=O)(=O)NCCC(=O)NC3CCN(Cc4ccccc4)CC3)ccc2N1
    i, 3.8%, -0.47
- Cn1c(=O)c2cc(S(=O)(=O)NCCC(=O)N3CC=C(c4ccccc4)CC3)ccc2n(C)c1=O
    i, -4.1%, -0.38
- COc1ccc(CCn2c(=S)[nH]c3cc(C(=O)NCc4ccco4)ccc3c2=O)cc1OC
    i, -0.2%, -0.74
- COc1cc(OC)c(C(=O)Oc2ccc3c(c2)OCO3)cc1OC
    i, 2.8%, 1.28
- CN1CCN(c2ccccc2NC(=O)c2cc3ccccc3o2)CC1
    i, -0.3%, x
- O=C(Nc1cccnc1)C1CCCN1S(=O)(=O)c1ccc(Cl)c(Cl)c1 (stereo not given)
    i, 2.0%, 0.83
- O=C(COC(=O)c1cnccn1)Nc1ccc2c(c1)OCO2
    i, 0.5%, 0.51
- CCC1(C)OC(=O)N(CCCn2ccnc2C)C1(C)O (stereo not given)
    i, 0.0%, x
- C[N+](C)(C)CCOC(=O)C1(c2ccccc2)CCCC1
    i, 1.7%, x
- COc1ccc(NC(=O)CSc2ncnc3c2cnn3Cc2ccccc2)cc1OC
    i, 0.8%, x
- CCOC(=O)CCC(NC(=O)c1ccc(NCN2C(=O)CCC2=O)cc1)C(=O)OCC (stereo not given)
    i, 0.5%, 0.5
- Cc1ccccc1OCC(=O)NCCC(=O)O
    i, -1.3%, 1.36
- O=C(O)CSc1nc(-c2ccccc2)nc2c1oc1ccccc12
    i, 1.8%, -0.37
- Cc1ccc2cc(C(c3nnnn3C3CCCC3)N(Cc3ccccc3)Cc3ccco3)c(=O)[nH]c2c1 (stereo not given)
    i, -17.0%, 0.16
- CC(C#N)Sc1ncnc2sc3c(c12)CCC3 (stereo not given)
    i, -2.1%, 0.46
- O=C(CSc1nnc2ccccn12)Nc1ccccc1C(=O)NC1CC1
    i, -2.8%, -1.28
- COCCn1c(C)cc(C2=NNC(=Nc3ccccc3)SC2)c1C
    5.3µM*, 2.6%, x
- CCn1c(=O)cc(OCC(=O)N2CCN(C(=O)c3ccco3)CC2)c2ccccc21
    i, -3.6%, -0.02
- C=CCn1c(CCC(=O)O)ccc1-c1ccccc1
    i, -4.1%, -0.000183
- O=C(CN1C(=O)c2cccc3cccc1c23)NCc1ccncc1
    i, 2.5%, x

Later entries.
Below each SMILES: MT1-MMP promoter, Hsc70 ATP site, WNV protease inh
- CC(C)c1ccc2oc(-c3cc(N)ccc3O)nc2c1
    i, -6.2%, -1.6
- CN(C)S(=O)(=O)c1ccc2nc(NC(=O)c3cccnc3)sc2c1
    i, -14.7%, 0.59
- CCn1nnc(NC(=O)COc2cc(C)ccc2C(C)C)n1
    i, 5.8%, 0.1
- O=C(O)c1cc(-c2ccccc2)on1
    i, -2.8%, x
- O=C(/C=C(\O)c1ccc(Cl)cc1)C(=O)NNC(=O)C(O)(c1ccccc1)c1ccccc1
    i, 1.1%, x
- OC(CN=c1sc2ccccc2n1CC(O)COc1ccccc1)COc1ccccc1 (stereo not given)
    i, 2.7%, x
- CCCCSc1nc2c(c(=O)[nH]c(=O)n2C)n1CCc1ccccc1
    i, 0.2%, 0.19
- O=C(c1ccccc1Nc1ccc(SC(F)F)cc1)N1CCCCC1
    i, -1.2%, x
- O=C(CSc1nnc(COc2ccc(Cl)cc2)n1Cc1ccco1)c1ccccc1F
    i, 1.7%, 0.87
- COc1cccc(-n2nnc3c(=O)n(C/C=C/c4ccccc4)cnc32)c1
    i, -4.1%, -0.51
- O=C(COC(=O)c1ccccn1)NC1CCCCC1
    i, 4.6%, x
- CCc1[nH]nc2c1C(c1ccsc1)C(C#N)=C(N)O2 (stereo not given)
    i, -1.4%, x
- COc1cccc(NC(=O)CSc2nnc(COc3ccc4c(c3)CCCC4)o2)c1
    i, 5.6%, 0.07
- CCc1ccc(CC)c(S(=O)(=O)Nc2ccc(C(=O)O)c(O)c2)c1
    i, -2.5%, 1.08
- CCOC(=O)C1CCN(C(=O)c2ccc(Br)o2)CC1
    i, -5.7%, -0.11
- Cc1nc2ccccc2nc1OCC(=O)NCc1ccc2c(c1)OCO2
    i, 3.8%, 0.13
- COc1cccc(C2C3=C(CCCC3=O)Nc3nc(-c4cc(OC)c(OC)c(OC)c4)nn32)c1 (stereo not given)
    i, 2.6%, 0.39
- CC(=O)c1cccc(NC(=O)C2CCCN(S(=O)(=O)c3ccccc3)C2)c1 (stereo not given)
    i, -2.3%, 0.58
- O=C(CSc1nnc(SCc2ccc(Cl)cc2)s1)N1CCOCC1
    i, 4.1%, 0.02
- Oc1ccccc1-c1nnc(-c2ccc(C(F)(F)F)cc2)o1
    i, 1.8%, 0.73

Some of these compounds in order of length of the SMILES, smallest number first.
Below each SMILES: MT1-MMP promoter, Hsc70 ATP site, WNV protease inh
- O=C(O)c1cc(-c2ccccc2)on1
    i, -2.8%, x
- O=C(COC(=O)c1ccccn1)NC1CCCCC1
    i, 4.6%, x
- CC(C)c1ccc2oc(-c3cc(N)ccc3O)nc2c1
    i, -6.2%, -1.6
- CCn1nnc(NC(=O)COc2cc(C)ccc2C(C)C)n1
    i, 5.8%, 0.1
- Oc1ccccc1-c1nnc(-c2ccc(C(F)(F)F)cc2)o1
    i, 1.8%, 0.73
- CCCCSc1nc2c(c(=O)[nH]c(=O)n2C)n1CCc1ccccc1
    i, 0.2%, 0.19
- CN(C)S(=O)(=O)c1ccc2nc(NC(=O)c3cccnc3)sc2c1
    i, -14.7%, 0.59

Remaining list, next part
Below each SMILES: MT1-MMP promoter, Hsc70 ATP site, WNV protease inh
- COc1ncnc2sc(-c3ccccc3)cc12
    i, -1.3%, -0.5
- CCCc1cc(C(N)=O)c(NC(C)=O)s1
    i, 3.2%, 0.71
- Oc1ccc(F)cc1-c1cc(-c2ccc3c(c2)OCCO3)n[nH]1
    i, 5.3%, x
- CCOC(=O)c1cnc(SCc2nc(N)nc(Nc3ccccc3)n2)nc1N
    i, -7.1%, 0.45
- Cc1cc(C)n(-c2ccc(C(=O)NC(C)C)cc2)n1
    i, 1.6%, -1.02
- CCc1c(C)nc2ncnn2c1N1CCC(C(=O)Nc2ccc(C)cc2)CC1
    i, 8.0%, 0.34
- O=C(Nc1n[nH]c(C2CCCCC2)n1)C1CCCCC1
    i, 6.5%, -0.11
- CNc1nc2sc3c(c2c(=O)n1C)CC(C)(C)SC3
    i, -8.9%, -7.01*
- Cc1ccc(S(=O)(=O)c2nc(C(C)(C)C)oc2N2CCOCC2)cc1
    i, -0.8%, 0.97
- CCOc1cc2[nH]c(=O)n(CCC(=O)NCCc3ccc(OC)c(OC)c3)c(=O)c2cc1OCC
    i, 7.1%, -0.87
- CC1(C)C2CCC1(CS(=O)(=O)N1CCCc3ccccc31)C(=O)C2 (stereo not given)
    i, 1.1%, -0.13
- CN(C)c1ncc(C(=O)O)cn1
    i, 3.0%, 0.55
- CCc1sc(NC(=O)CN2CCOCC2)nc1-c1ccccc1
    i, -5.8%, -0.81
- NC(=O)C1CCN(C(=O)c2cc(S(=O)(=O)N3CCOCC3)c(Cl)cc2Cl)CC1
    i, 0.8%, -0.08
- CCCC(=O)c1ccc(N2CCOCC2)c(F)c1
    i, -3.7%, -0.77
- Cc1ccc(CC2CC(=O)N(CC(=O)O)C2=O)cc1 (stereo not given)
    i, 1.7%, x
- Nc1c(S(=O)(=O)c2ccccc2)nnn1-c1ccccc1
    i, 6.6%, 0.21
- Nn1c(SCC(=O)NCc2ccc3c(c2)OCO3)nnc1C1CC1
    i, 0.9%, x
- COc1ccc(Cl)c(S(=O)(=O)N2CCCC2)c1
    i, -4.3%, -0.99
- Cc1cc(=O)n2nc(N3CCCC(C(=O)N4CCN(C)CC4)C3)sc2n1 (stereo not given)
    i, -1.9%, -0.17

Remaining list, next part
Below each SMILES: MT1-MMP promoter, Hsc70 ATP site, WNV protease inh
- Cc1cc(C(=O)NCCCn2ccnc2)sc1-c1ccccc1
    i, 1.5%, -0.19
- COc1ccc(C(=O)Nc2cc3c(cc2C#N)OCO3)cc1S(=O)(=O)N1CCN(C)CC1
    i, 1.1%, 0.19
- CC1=CC(C)(C)C(C(=O)O)C(C(=O)O)C1 (stereo not given)
    i, -0.9%, -0.43
- COc1ccc(C(=O)NC2CCCCCC2)cc1S(=O)(=O)Nc1ccc(Br)cc1
    i, 2.6%, x
- COc1cccc(CN(Cc2cccnc2)S(=O)(=O)c2ccc(-n3cnnn3)c(C)c2)c1OC
    i, -1.2%, -0.54
- COC(=O)c1ccccc1NC(=O)c1ccc(COc2ccc(C)c(C)c2)o1
    i, -6.4%, x
- Cc1ccc(OCCSc2nnc(-c3ccncc3)n2C)cc1
    i, 0.5%, -0.54
- Fc1cccc(-c2oncc2-c2nnnn2-c2ccc(Cl)cc2)c1
    i, 3.4%, x
- Cc1ccc(C2C(C(=O)c3cc4ccccc4o3)=C(O)C(=O)N2CCCN(C)C)cc1 (stereo not given)
    i, -3.0%, 0.04
- COC(=O)c1cn(C)c2ccc(S(=O)(=O)N3CCCC3)cc2c1=O
    i, -2.0%, 0.1
- Cc1ccc(N/C=C/C(=O)C(C)(C)C)c(O)c1
    i, 7.6%, x
- CCN(CC)c1nc2ccccc2nc1C(C#N)C(=O)NCCCOC (stereo not given)
    i, 4.1%, -1.4
- C=CCc1ccccc1OCC(O)CN1CCN(c2ccccc2F)CC1 (stereo not given)
    i, 1.0%, 1.08
- Cc1ccc(-n2c(C)cc(C)c(C#N)c2=O)cc1Cl
    i, 6.0%, 1.56
- Cc1cc(=O)[nH]c(-n2nc(C)cc2C)n1
    i, -7.7%, 1.55
- O=C(c1cccnc1)N1C2C=CC(C2)C1(C(F)(F)F)C(F)(F)F (stereo not given)
    i, 5.9%, 1.27
- O=C(CSc1nc2ccccc2n1CC(=O)N1CCCC1)Nc1ccc2c(c1)OCO2
    i, 6.2%, 1.81
- Cc1ccc(C(C)C)c(OCC(=O)N2CCOCC2)c1
    i, -6.6%, 0.03
- O=C(CSc1nnc(Cn2c(=O)sc3ccccc32)n1-c1ccccc1)N1CCCCCC1
    i, 0.7%, -1.23
- CC1(C)CC(=O)C2=C(C1)NC(=O)CC2c1cccc(F)c1 (stereo not given)
    i, -5.9%, -0.67

(more compounds)
Below each SMILES: MT1-MMP promoter, Hsc70 ATP site, WNV protease inh
- Cc1ccc(CN(C(=O)c2ccco2)C(C(=O)NC2CCCC2)c2ccc(N3CCOCC3)cc2)cc1 (stereo not given)
    i, 0.5%, x
- Cc1c(C(=O)O)sc(=S)n1CCOc1ccccc1
    i, 4.1%, -0.96
- CCc1nnc(NC(=O)c2cccc(S(=O)(=O)N(C)c3ccccc3)c2)s1
    i, -5.1%, x
- N#Cc1c(NC(=O)CSc2n[nH]c(N)n2)oc(-c2ccccc2)c1-c1ccccc1
    i, 2.5%, x
- COc1ccc(N2CCN(CC(O)c3c[nH]c4ccc(OC)cc34)CC2C)cc1 (stereo not given)
    i, -3.7%, -1.2
- Cc1ccc(-c2noc(CCC(=O)Nc3ccccc3N3CCN(C)CC3)n2)cc1
    i, -4.9%, 0.23
- Cc1ccc(-c2cc(-c3ccccc3)c(C#N)c(N)n2)o1
    i, -4.7%, 4.66
- O=C(Oc1ccc2ccc(=O)oc2c1)N1CCOCC1
    i, 3.4%, 0.74
- Cc1cc(C)nc(SCC(=O)c2ccc(O)cc2O)n1
    i, 4.7%, -0.99

Some of the compounds tested, so the mix of outcomes need not match the whole.
